Polio RdRp inh: poliovirus RdRp elongation inhibitors, primary screen, biochemical, fluorescence polarization, total intensity; poliovirus polymerase elongation; stronger effect = lower value; Genome polyprotein (Poliovirus type 1 (strain Mahoney)), P03300; actives 0.66% (n = 150,000); % elongation, % (compound at 16.7 µg/mL); in the data active means % elongation below about 90%; further: some results filed as inactive read as strong as hits
Target sequence (P03300 1749-2209 limits assumed): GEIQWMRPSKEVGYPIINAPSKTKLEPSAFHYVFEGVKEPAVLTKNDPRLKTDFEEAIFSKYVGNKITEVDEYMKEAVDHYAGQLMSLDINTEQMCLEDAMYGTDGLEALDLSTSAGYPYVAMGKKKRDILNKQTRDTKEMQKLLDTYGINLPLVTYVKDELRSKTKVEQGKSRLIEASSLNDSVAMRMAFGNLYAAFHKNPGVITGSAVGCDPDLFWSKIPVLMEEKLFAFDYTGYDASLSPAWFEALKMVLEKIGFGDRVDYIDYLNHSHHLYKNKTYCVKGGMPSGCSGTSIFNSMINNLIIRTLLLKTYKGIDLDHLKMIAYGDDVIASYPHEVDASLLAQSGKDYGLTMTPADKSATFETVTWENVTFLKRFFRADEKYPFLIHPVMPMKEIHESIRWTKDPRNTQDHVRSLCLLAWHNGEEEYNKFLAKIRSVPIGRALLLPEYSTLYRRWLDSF
Polio RdRp inh intensity: second read-out of Polio RdRp inh, no call of its own (marks repeat the call); % elongation; measured here: total intensity read-out; formula for this scale not given here;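 total fluorescence in place of polarization; lower means less elongation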
Numbers without * were called inactive. Some of the compounds tested; rates above refer to the full screens.

SMILES | Polio RdRp inh | Polio RdRp inh intensity
Cc1cc(Nc2cccc(C(F)(F)F)c2)nc2ccc(NC(=O)c3cncc(Br)c3)cc12 | 111 | 99
Cc1nc2nc(NC(=O)c3ccc(C(C)(C)C)cc3)[nH]n2c(=O)c1Cc1ccccc1 | 105 | 98
CCOc1ccc2c(c1)c(=O)c(C(=O)c1ccc(C)cc1)cn2Cc1ccccc1OC | 105 | 104
CC(=O)N1CCCc2cc(S(=O)(=O)N3CCCC(C(=O)N4CCN(c5ccccc5)CC4)C3)ccc21 (configuration not stated) | 112 | 116
COc1ccc(C(=O)NCC(c2ccco2)S(=O)(=O)c2cccs2)cc1OC (configuration not stated) | 111 | 97
CCOC(=O)c1c(S(=O)(=O)NCC(=O)Nc2ccc(Cl)c(C(F)(F)F)c2)c(C)n(C)c1C | 103 | 110
COC(=O)c1cc(NC(=O)CCS(=O)(=O)c2cc(Br)cc3c2N(C(=O)C2CC2)CC3)cc(C(=O)OC)c1 | 102 | 107
CCCCN1CC(c2nc3ccccc3n2CCCCOc2c(C)cccc2C)CC1=O (configuration not stated) | 109 | 111
CCc1ccc(OC(=O)CSc2nnc(-c3ccc4c(c3)OCO4)o2)cc1 | 102 | 106
CC(C)COc1ccc(C(=O)N2CCN(CCc3ccccn3)CC2)cc1 | 107 | 109
Cc1[nH]c(=O)[nH]c(=O)c1S(=O)(=O)Nc1cccc(Cl)c1C | 108 | 113
O=C(NC1CC(=O)N(c2ccc(Cl)cc2)C1)c1cccs1 (configuration not stated) | 98 | 103
CCc1cccc(C)c1NC(=O)CSc1nnc(CC)n2c1cc1occc12 | 111 | 108
Cc1ccc(-n2c(SCc3nc(-c4ccc(Cl)cc4)no3)nnc2-c2ccncc2)cc1 | 105 | 106
CCN(C(=O)NCc1noc2ccccc12)c1cc(C)ccc1C | 105 | 109
CCn1cc(C(=O)OCC(=O)Nc2cccc(Cl)c2C)c(=O)c2ccc(C)nc21 | 105 | 109
CC(C)(C)c1ccc(C(=O)NCC(c2cccs2)S(=O)(=O)c2ccccc2)cc1 (configuration not stated) | 117 | 120
CCOc1ccc2nc(Cl)c(C3CC(c4ccc(OC)cc4)=NN3S(C)(=O)=O)cc2c1 (configuration not stated) | 107 | 104
Cc1cccc(-c2cc(C(=O)O)c3c(-c4ccc(F)cc4)[nH]nc3n2)c1 | 100 | 98
COc1ccccc1-c1nn(CCC(=O)Nc2ccccc2)c2nc(C)cc(C)c12 | 105 | 104
CCc1ccc(CN(Cc2ccco2)C(=O)COc2ccccc2Cl)cc1 | 98 | 90
COc1ccc(CNC(=O)c2ccc3c(c2)N(Cc2ccccc2F)C(=O)c2ccccc2S3(=O)=O)cc1 | 104 | 106
CCN(CC)C(=O)CSc1nnc2ccc3ccccc3n12 | 101 | 105
Cc1ccc(-c2nc(CS(=O)(=O)CC(=O)NCc3ccccc3Cl)c(C)o2)cc1 | 104 | 110
Cc1ccc2oc(C(=O)N3CCC(c4nc5ccccc5s4)CC3)c(C)c2c1 | 100 | 105

The listing continues.
SMILES | Polio RdRp inh | Polio RdRp inh intensity
Cc1cc(C)c2oc(C(=O)Nc3ccc(S(=O)(=O)N4CCCCC4)cc3)cc(=O)c2c1 | 105 | 108
CCC1CN(S(=O)(=O)c2cc(-c3onc(C)c3C)ccc2C)c2cc(Cl)ccc2O1 (configuration not stated) | 111 | 113
COc1ccc(NS(=O)(=O)c2cc3c(cc2C)N(C(C)=O)CCO3)cc1 | 101 | 105
CC(C)C(=O)N1c2nc(-c3ccco3)nn2C2(CCCCC2)[C@@H]2CCCC[C@@H]21 | 102 | 107
CCOc1ccc(N2C(=O)c3[nH]nc(-c4ccccc4)c3C2c2ccc(O)c(OC)c2)cc1 (configuration not stated) | 105 | 106
Cc1noc(C)c1S(=O)(=O)N1CCCC(C(=O)Nc2ccc(C(C)C)cc2)C1 (configuration not stated) | 106 | 103
c1ccc(N2CCN(c3ncnc4[nH]ncc34)CC2)cc1 | 106 | 108
Cc1ccc(CN(C(=O)COc2c(C)cccc2C)C2CCS(=O)(=O)C2)o1 (configuration not stated) | 122 | 114
Cc1cccc(C)c1NC(=O)CCC(=O)N1Cc2ccccc2Oc2ncccc21 | 108 | 116
Cc1ccccc1Cn1cnc2nc3c(cc2c1=O)CC(C)CC3 (configuration not stated) | 114 | 103
CCOc1ccccc1NC(=O)C1=C(C)Nc2ncnn2C1c1cccs1 (configuration not stated) | 102 | 109
Cc1noc(-c2ccc(NCc3ccccc3)c([N+](=O)[O-])c2)n1 | 103 | 106
Cc1ccc(CNC(=O)c2cnc(N(C)C)nc2)cc1 | 109 | 102
Cc1cc(N2CCN(c3cc(Cl)ccc3C)CC2)n2nc(-c3ccccc3)nc2n1 | 104 | 106
CC1CCCN(C(=O)c2ccc(CSc3nc4ccncc4n3Cc3ccccc3)cc2)C1 (configuration not stated) | 105 | 106
Cc1ccc(C(=O)Nc2c(C(=O)NC(C)(C)C)oc3ccccc23)cc1 | 111 | 109
Cc1ccccc1-c1nc(CNC(=O)NC2CCCCC2)c(C)o1 | 101 | 104
O=C(Nc1ccc(F)c(F)c1)c1cc(S(=O)(=O)N2CCc3ccccc32)ccc1F | 100 | 97
COc1ccccc1NC(=O)C1CCCN(c2nnc(C)c3c(C)n(-c4ccccc4)nc23)C1 (configuration not stated) | 102 | 98
CC(NC(=O)CCCN1C(=O)CCn2nc(-c3cn(C)c4ccccc34)cc21)c1ccccc1 (configuration not stated) | 106 | 108
COc1cccc(NC(=O)C2CCN(C(=O)N3CC(C)Oc4ccccc43)CC2)c1 (configuration not stated) | 103 | 97
COc1ccc(NC(=O)c2c(NC(=O)Cc3ccccc3)sc3c2CCCC3)cc1 | 103 | 96
O=C(/C=C/c1ccccc1Cl)Nc1nc(-c2cccs2)ns1 | 102 | 119
Cc1ccc(N(Cc2cccs2)C(=O)C(C)Oc2ccc(Cl)c(C)c2)cc1 (configuration not stated) | 104 | 105
COc1ccc(NC(=O)CCc2c(C)nn(-c3ccc(N4CCOCC4)nn3)c2C)cc1Cl | 106 | 104

Next section
SMILES | Polio RdRp inh | Polio RdRp inh intensity
CCCOc1ccc(Oc2nc(NCC(C)C)nc(N(C)C)n2)nn1 | 113 | 109
Cc1c(C(=O)N(C)C)sc2c1c(=O)n(-c1ccc(F)cc1)c(=O)n2Cc1cc(=O)n2ccccc2n1 | 108 | 95
COc1cccc(C(=O)Nc2cccc(OCc3cc(=O)n4cc(C)ccc4n3)c2)c1 | 101 | 104
COc1ccccc1CNc1cc(C)nc2nc(-c3ccc(C)cc3)nn12 | 106 | 117
CCc1cc(C(=O)N2CCN(c3ccccc3)CC2)no1 | 104 | 108
CCN(CC)c1ccc(NC(=O)C2CCN(c3nnc(-n4cccc4)s3)CC2)c(C)c1 | 111 | 110
CCc1ccc(C2CC(=O)Nc3c2c(C)nn3-c2nc(C)cc(C)n2)cc1 (configuration not stated) | 100 | 105
Cc1ccc(CCNC(=O)c2cc3sccc3n2Cc2ccc(Cl)cc2)cc1 | 107 | 111
Cc1ccc(N2CCN(C(=O)c3cnn(-c4ccc(F)cc4F)c3C3CCN(C(=O)OC(C)(C)C)CC3)CC2)c(C)c1 | 104 | 100
O=C(CCCn1c(=O)c2sccc2n(Cc2ccc(F)cc2Cl)c1=O)NCc1ccc2c(c1)OCO2 | 105 | 108
Cc1ccc2nc(NC(=O)c3cc(=O)c4cc(Cl)ccc4o3)sc2c1 | 106 | 105
COc1ccc(-c2nnc(SCC(=O)c3ccc([N+](=O)[O-])cc3)o2)cc1OC | 109 | 112
Cc1ccc2c(CC(=O)N3CCN(c4cccc(Cl)c4)CC3)coc2c1 | 97 | 109
CC(NC(=O)CSc1n[nH]c(-c2ccccc2)n1)c1nc2ccccc2n1C (configuration not stated) | 104 | 105
CCOc1ccc(CNC(=O)CCCn2nc(C)c3sc4ccccc4c3c2=O)cc1 | 106 | 103
Cc1ccc(Cc2nc3ccccc3nc2SCC(=O)Nc2ccc3c(c2)OCO3)cc1 | 108 | 113
COc1ccc2nc(NC(=O)c3nc(S(=O)(=O)Cc4ccc(C)cc4)ncc3Cl)sc2c1 | 119 | 123
O=C(CSc1nnc(-c2ccccc2)c(-c2ccccc2)n1)Nc1ccccc1Cl | 110 | 113
CCOC(=O)C1CCN(Cc2cn3c(-c4ccc(OC)cc4)nnc3s2)CC1 | 103 | 111
COc1cccc(CN2C(=O)C3(SCC(=O)N3c3ccc(C(C)C)cc3)c3ccccc32)c1 (configuration not stated) | 106 | 105
CC(NC(=O)c1cc2c(=O)n3ccccc3nc2n(C(C)C)c1=N)c1ccccc1 (configuration not stated) | 106 | 104
Cc1ccccc1OCc1nnc(SCc2cc(=O)c3cc(F)ccc3[nH]2)n1C | 108 | 113
Cn1c(NCc2ccccc2F)nc2ccccc21 | 105 | 109
O=C(COCc1cc(-c2ccc3c(c2)OCO3)on1)Nc1cc(Cl)ccc1O | 111 | 113
O=C(NCCCc1nc2ccccc2n1Cc1ccccc1Cl)c1ccco1 | 108 | 110

Following part:
SMILES | Polio RdRp inh | Polio RdRp inh intensity
CCCC1N=C2c3ccccc3N=C(SCC(=O)NCCc3ccc(Cl)cc3)N2C1=O (configuration not stated) | 105 | 105
Cc1cc(C)cc(OCC(=O)Nc2c(C)ccc3nsnc23)c1 | 103 | 102
Cc1ccc(C(=O)Nc2nnc(SCc3cc(=O)c4c(C)ccc(C)c4[nH]3)s2)cc1 | 112 | 114
O=C(CSc1nc(=O)n(Cc2cccnc2)c2c1CCC2)Nc1cccc(Cl)c1 | 107 | 105
COC(=O)c1c(SCC(=O)Nc2cc(C)cc(C)c2)[nH]c2ccccc2c1=O | 112 | 116
COc1ccc(CCN2C(=O)N(c3ccc(C)cc3)C(=O)C2CC(=O)Nc2ccc(F)cc2)cc1 (configuration not stated) | 100 | 100
CCCCOC(=O)c1ccc(NC(=O)c2cc3c(=O)n4cccc(C)c4nc3s2)cc1 | 103 | 105
COc1ccc2sc(N(Cc3cccnc3)C(=O)c3cccs3)nc2c1 | 113 | 117
CCCCc1nn2c(=O)cc(COC(=O)C3CCCCC3)nc2s1 | 104 | 110
Cc1ccc(Cc2cn3cc(-c4ccccc4)nc3s2)cc1 | 103 | 103
COC(=O)c1ccc(Cn2c(=O)cc(C(F)(F)F)c3c(C)nn(C)c32)cc1 | 102 | 106
Cc1cccc(C)c1Nc1sc(C(=O)c2ccccc2)c(N)c1C(=O)Nc1ccc(F)cc1 | 108 | 113
Cc1cccc(-n2ncc(C(=O)N3CCN(C4CCCCC4)CC3)c2C2CCN(C(=O)OC(C)(C)C)CC2)c1 | 107 | 109
COc1cccc(C2C(C(=O)Nc3ccc(C)cc3C)=C(C)Nc3nc4ccccc4n32)c1OC (configuration not stated) | 111 | 113
CCOC(=O)c1ccc2c(c1)[C@@H]1C=CC[C@@H]1[C@H](c1cccc(OC)c1OC)N2 | 110 | 112
Cn1cnc(S(=O)(=O)N2CCC(C(=O)NCc3ccc(Cl)cc3)CC2)c1 | 101 | 107
CCOC(=O)c1cnc2cc(C(F)(F)F)ccc2c1Nc1ccc(F)cc1F | 108 | 110
CCCCC(=O)Nc1c(C(=O)N2CCN(c3ccccc3F)CC2)oc2ccccc12 | 107 | 109
COc1ccc(OC)c(NC(=O)Cn2c(=O)n(-c3ccc(Cl)cc3)c(=O)c3c(C)c(C)sc32)c1 | 108 | 110
Cc1ccc(-n2ncc(C(=O)N3CCN(c4cc(Cl)ccc4C)CC3)c2C2CCN(C(=O)OC(C)(C)C)CC2)cc1 | 111 | 106
CCc1ccccc1NC(=O)CCS(=O)(=O)c1cccc2nonc12 | 107 | 111
Cc1ccc(N(Cc2cccs2)C(=O)COc2ccccc2[N+](=O)[O-])cc1 | 109 | 103
COc1ccc(NC(=O)c2cc3c(=O)n(Cc4cccnc4)ccc3nc2C)c(OC)c1 | 110 | 111
Cc1ccc(-c2nc(C(=O)NCc3ccc(Cl)cc3)c3n2CCCCC3)cc1 | 112 | 111
O=C(Nc1cc(Cl)ccc1O)c1cc2nc(-c3ccc4c(c3)OCO4)cc(C(F)(F)F)n2n1 | 101 | 105
Cc1ccc(OCC(=O)Nc2ccc(C(=O)OCc3cc(=O)n4c(C)csc4n3)cc2)cc1 | 109 | 108
CCc1ccccc1NC(=O)CSc1ncc(S(=O)(=O)c2ccccc2)c(=O)[nH]1 | 93 | 98

Sorted by count of non-hydrogen atoms (rising): 13 of the compounds above.
SMILES | Polio RdRp inh | Polio RdRp inh intensity
Cc1ccc(Cc2cn3cc(-c4ccccc4)nc3s2)cc1 | 103 | 103
Cc1cc(C)cc(OCC(=O)Nc2c(C)ccc3nsnc23)c1 | 103 | 102
CCCCc1nn2c(=O)cc(COC(=O)C3CCCCC3)nc2s1 | 104 | 110
COc1ccc2sc(N(Cc3cccnc3)C(=O)c3cccs3)nc2c1 | 113 | 117
COC(=O)c1ccc(Cn2c(=O)cc(C(F)(F)F)c3c(C)nn(C)c32)cc1 | 102 | 106
COC(=O)c1c(SCC(=O)Nc2cc(C)cc(C)c2)[nH]c2ccccc2c1=O | 112 | 116
O=C(CSc1nc(=O)n(Cc2cccnc2)c2c1CCC2)Nc1cccc(Cl)c1 | 107 | 105
CCCCC(=O)Nc1c(C(=O)N2CCN(c3ccccc3F)CC2)oc2ccccc12 | 107 | 109
COc1ccc(NC(=O)c2cc3c(=O)n(Cc4cccnc4)ccc3nc2C)c(OC)c1 | 110 | 111
Cc1ccc(OCC(=O)Nc2ccc(C(=O)OCc3cc(=O)n4c(C)csc4n3)cc2)cc1 | 109 | 108
COc1ccc(CCN2C(=O)N(c3ccc(C)cc3)C(=O)C2CC(=O)Nc2ccc(F)cc2)cc1 (configuration not stated) | 100 | 100
Cc1cccc(-n2ncc(C(=O)N3CCN(C4CCCCC4)CC3)c2C2CCN(C(=O)OC(C)(C)C)CC2)c1 | 107 | 109
Cc1ccc(-n2ncc(C(=O)N3CCN(c4cc(Cl)ccc4C)CC3)c2C2CCN(C(=O)OC(C)(C)C)CC2)cc1 | 111 | 106
